Assay outcomes (PubChem)
Mm-Cpn inhibitor: Inhibitors of TCP-1 ring complex (TRiC) of Methanococcus maripaludis (MmCpn): qHTS; Chaperonin Mm-Cpn (Methanococcus maripaludis); purified Mm-Cpn ATPase, ADP Transcreener TR-FRET; Potency, µM (series often up to 76.9 µM), without a hit: top-dose activity, negative = inhibition, hits mostly inhibitors; 330,000 compounds, 0.031% hits; AID 504842, 2011; also: potency is read from the fitted curve at half-maximal effect; % is scaled to controls: 0 for no effect and ±100 for the full control effect; nearly all actives have a fitted effect of over 80% in size
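Measured: ADP formation by purified Mm-CPN. Conditions: 25 nM protein, 10 uM ATP, Tris pH 7.4 with Mg2+, K+ and DTT, 37°C for 30 min. Detection: Transcreener HTRF after 30 min at room temperature.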
EPAC1 antagonist: qHTS for Antagonist of cAMP-regulated guanine nucleotide exchange factor 3 (EPAC1): primary screen; EPAC1 GEF assay, Rap1b-BODIPY-GDP exchange fluorescence; Potency, µM (highest dose often 115 µM), inactives show at the top dose activity change, negative = inhibition, usual class: inhibitors; 360,000 compounds, 0.14% hits;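 also: potency is read from the fitted curve at half-maximal effect; plate controls were vehicle for no effect and positive control for full effect; nearly all actives have a fitted effect of over 50% in size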
Target sequence (O95398 whole entry, looked up): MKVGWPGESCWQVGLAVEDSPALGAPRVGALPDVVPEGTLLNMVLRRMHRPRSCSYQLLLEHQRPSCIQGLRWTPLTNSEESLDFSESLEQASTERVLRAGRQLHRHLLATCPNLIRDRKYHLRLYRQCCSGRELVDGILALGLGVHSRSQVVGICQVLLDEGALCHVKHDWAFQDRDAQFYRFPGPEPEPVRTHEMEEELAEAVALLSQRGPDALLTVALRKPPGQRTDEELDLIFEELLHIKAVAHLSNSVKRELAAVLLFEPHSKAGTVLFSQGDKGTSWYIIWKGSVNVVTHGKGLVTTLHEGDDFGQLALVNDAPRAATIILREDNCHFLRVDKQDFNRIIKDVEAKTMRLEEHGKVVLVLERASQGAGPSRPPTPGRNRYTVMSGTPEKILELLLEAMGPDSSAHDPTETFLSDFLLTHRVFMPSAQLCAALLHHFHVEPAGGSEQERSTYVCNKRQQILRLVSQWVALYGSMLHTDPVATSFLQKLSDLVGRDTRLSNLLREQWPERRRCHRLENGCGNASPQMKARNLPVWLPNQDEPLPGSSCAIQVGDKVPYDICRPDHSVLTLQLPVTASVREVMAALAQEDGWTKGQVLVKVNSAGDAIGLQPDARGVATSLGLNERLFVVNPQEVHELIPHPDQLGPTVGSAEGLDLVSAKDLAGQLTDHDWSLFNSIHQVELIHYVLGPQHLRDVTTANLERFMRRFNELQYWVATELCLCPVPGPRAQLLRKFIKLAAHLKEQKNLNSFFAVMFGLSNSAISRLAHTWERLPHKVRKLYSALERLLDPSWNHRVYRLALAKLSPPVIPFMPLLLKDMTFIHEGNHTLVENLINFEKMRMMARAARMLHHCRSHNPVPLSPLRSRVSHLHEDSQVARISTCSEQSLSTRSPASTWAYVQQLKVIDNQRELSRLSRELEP
PLK1 PBD block: qHTS for Inhibitors of PLK1-PDB (polo-like kinase 1 - polo-box domain): Primary Screen; AID 720504, 2013; Serine/threonine-protein kinase PLK1 (Homo sapiens), P53350; 360,000 compounds, 2.8% hits; Potency, µM, without a hit: max response, negative = inhibition, hits mostly inhibitors; Plk1 PBD binding of FITC phosphopeptide, fluorescence polarization; also: potency is read from the fitted curve at half-maximal effect; series mostly up to about 57 µM; % is scaled to controls: 0 for no effect and ±100 for the full control effect; nearly all actives have a fitted effect of over 65% in size
CCT chaperon mod: High-Throughput Screening for Modulators of Cytosolic Chaperonin Activity; AID 651819, 2012; 360,000 compounds, 0.3% hits; purified chaperonin ATPase assay, HTRF ADP detection, 30 min; activity change, % (concentration not given with the values), hits read low; in the data active = activity change below about -30%; also: % is scaled to controls: 0 for no effect and ±100 for the full control effect
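First, chaperonin was dispensed at 40 nM or 20 nM final depending on batch activity. Next, compounds were pinned at 76 uM and ATP added at 10 uM. After 30 min at 37 °C, ADP detection reagents ran 30 min at ambient temperature.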
EPAC1 ag: qHTS for Agonist of cAMP-regulated guanine nucleotide exchange factor 3 (EPAC1): primary screen | Rap guanine nucleotide exchange factor 3 (Homo sapiens), O95398 | EPAC1 agonist qHTS, biochemical assay; response scale: 100% = response to 6.5 mM cAMP | Potency, µM (series often up to 154 µM), for the others: top-dose activation, usual class: activators | 360,000 compounds, 0.073% hits | AID 720707, 2013; also: potency is read from the fitted curve at half-maximal effect; nearly all actives have a fitted effect of over 60% in size
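Nucleotide exchange assay: 100 nM EPAC1 with 250 nM Rap1B loaded with BODIPY-GDP and 50 uM GDP, room temperature. Fluorescence (480/540 nm) read every 5 min for 30 min; signal change normalized to 6.5 mM cAMP as full agonist.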
Active calls of the source: *; ? = inconclusive; . = no result given. Unless noted, calls follow the shape of the dose curve; as a rule, active = well fitted curve in the direction sought with a large enough effect; inconclusive = small, poorly fitted or top-dose-only effect, or another doubt; inactive = no such curve, though single readings can be large; an effect the other way counts as inactive or inconclusive. The list is partial; count on the stated rates, not on these rows.

item | canonical_smiles | Mm-Cpn inhibitor | EPAC1 antagonist | PLK1 PBD block
1 | C/C(=N\NC(=O)c1ccc(NS(=O)(=O)c2cccs2)cc1)c1ccncc1 | 0.4% | 12.0% | -3.9%
2 | O=S(=O)(Cc1cccc(C(F)(F)F)c1)c1ncn[nH]1 | 0.1% | -5.9% | -0.7%
3 | COc1ccccc1N1C(=O)N(CC(=O)C(C)(C)C)c2ccccc2S1(=O)=O | 1.2% | -23.9% | -7.1%
4 | CC(C)NC(=O)CNc1ccc(C(F)(F)F)cc1[N+](=O)[O-] | 2.6% | -15.9% | -8.5%
5 | O=C(NCc1cccc(F)c1)c1noc2c1CCCC2 | 3.6% | 1.4% | 6.4%
6 | CC(=O)N/C(=C\c1ccccc1)C(=O)OC(C)C(=O)NCc1ccccc1 (configuration not stated) | 0.9% | 0.4% | -16.1%
7 | COCCn1nnnc1C(c1cc2cc(C)ccc2[nH]c1=O)N1CCc2ccccc21 (configuration not stated) | 2.6% | 5.3% | -18.4%
8 | Cc1ccc(C)c(NCCCCC(=O)O)c1 | . | 8.4% | 1.3%
9 | O=S(=O)(Cc1c(F)cccc1Cl)c1ncn[nH]1 | 3.0% | -6.7% | -19.1%
10 | Cc1ccc2cc(C(c3nnnn3Cc3ccccc3)N3CCc4ccccc43)c(=O)[nH]c2c1C (configuration not stated) | ? | 3.2% | -13.9%
11 | CCN(CC)CC(=O)N1c2ccccc2Oc2c(c(=O)n(C)c(=O)n2C)C1c1cccc([N+](=O)[O-])c1 (configuration not stated) | -1.4% | 5.8% | 0.2%
12 | O=c1cc(O)nc(SCc2ccccc2Cl)[nH]1 | 2.5% | 8.2% | -5.2%
13 | NS(=O)(=O)c1cccc(NS(=O)(=O)c2cccc(C(F)(F)F)c2)c1 | 0.6% | -19.8% | -3.2%
14 | O=C(Nc1nnc(CCN2CCCCC2)s1)c1ccc(Br)cc1 | 1.3% | 5.4% | -3.6%
15 | COc1ccc(Cl)cc1NC(=O)COC(=O)c1ccc(Cl)nc1 | -10.0% | 9.8% | -2.7%

item | CCT chaperon mod | EPAC1 ag
1 | -2.1 | 8.9%
2 | 1.8 | -2.7%
3 | -2.2 | 4.4%
4 | -0.5 | 9.4%
5 | -1.6 | 2.3%
6 | 2.1 | 10.4%
7 | 0.6 | 3.5%
8 | -0.4 | -0.9%
9 | -0.9 | 1.8%
10 | -1.4 | -9.1%
11 | 0.2 | -6.2%
12 | 2.1 | -7.2%
13 | -3.4 | 6.3%
14 | -1.7 | 7.2%
15 | 0.5 | 4.3%

Later entries
item | canonical_smiles | Mm-Cpn inhibitor | EPAC1 antagonist | PLK1 PBD block
16 | Cc1cc(N/N=C\c2ccc(Br)cc2)nc(-n2nc(C)cc2C)n1 | -0.4% | -2.8% | -22.1%
17 | CCCCNC(=O)c1nc(C2CCN(S(=O)(=O)c3ccc(F)c(F)c3)CC2)oc1-c1ccccc1 | . | 4.1% | -3.4%
18 | CCN(CC(=O)Nc1c(F)cccc1F)C(=O)CCc1nc2sc3c(c2c(=O)[nH]1)CCCC3 | -0.2% | ? | -28.5%
19 | CC(NS(=O)(=O)c1ccc(Cl)cc1)C(=O)OCC(=O)c1ccc[nH]1 (configuration not stated) | -0.1% | -2.6% | 3.4%
20 | C[C@H](NS(=O)(=O)c1ccc(Cl)cc1)C(=O)OCC(=O)c1ccc[nH]1 | -1.2% | -1.0% | -19.9%
21 | CC(=O)N1CCc2cc(C(=O)CN3CCCCC3)ccc21 | -0.3% | 4.8% | -8.4%
22 | N#Cc1ccc(/C=N/NC(=O)c2ccccc2F)cc1 | 2.8% | -2.2% | 5.6%
23 | CCn1c(SCC(=O)N/N=C/C=C/c2ccco2)nnc1-c1ccccc1 | -0.1% | ? | -16.5%
24 | COc1ccc(C2/C(=C(/O)c3ccc(F)cc3)C(=O)C(=O)N2CCCN2CCOCC2)cc1OC (configuration not stated) | -1.0% | -20.8% | -4.7%
25 | O=C(O)c1ccc2nc3c(nc2c1)-c1ccccc1C3=O | 2.3% | -11.2% | 29.9µM*
26 | O=c1c(NCCc2ccccc2)c(-c2ccccc2)c1=O | 0.9% | -1.3% | -11.6%
27 | CCOC(=O)C1CCCN(C(=S)NC(=O)/C=C/c2ccc(F)cc2)C1 (configuration not stated) | -0.3% | ? | -14.1%
28 | CC1CC(C)CN(C(=O)COC(=O)c2ccc(S(=O)(=O)N(C)c3ccccc3)cc2)C1 (configuration not stated) | -0.7% | -19.4% | -6.8%
29 | Nc1ccc(C(=O)OC2CCOC2=O)cc1[N+](=O)[O-] (configuration not stated) | 1.4% | -7.7% | -9.9%
30 | COc1ccc(/C=C/C2=Nc3ccccc3NC(C)(C)C2)cc1OC | -2.3% | 7.2% | -0.5%

item | CCT chaperon mod | EPAC1 ag
16 | -0.9 | -6.9%
17 | 1.2 | 15.4%
18 | 4.8 | 2.7%
19 | -0.6 | 3.5%
20 | -1.0 | 2.3%
21 | -0.1 | -1.7%
22 | 0.3 | -0.5%
23 | -0.4 | -13.4%
24 | -0.2 | -3.0%
25 | 0.0 | -2.9%
26 | 0.3 | 4.9%
27 | -3.9 | -8.7%
28 | 0.9 | 7.9%
29 | 1.2 | 16.3%
30 | 2.1 | -11.1%

New compounds follow:
item | canonical_smiles | Mm-Cpn inhibitor | EPAC1 antagonist | PLK1 PBD block
31 | COc1ccc(CC(=O)OCC(=O)Nc2cc(Cl)ccc2C)cc1 | 0.8% | 20.0% | -6.4%
32 | COc1ccccc1NC(=O)C1=C(C)Nc2nnnn2C1c1cccc(C)c1 (configuration not stated) | -1.4% | -5.2% | -2.0%
33 | CC(=O)OCC1=C(C(=O)O)N2C(=O)[C@@H](NC(=O)CSc3ccncc3)[C@H]2SC1 | ? | -24.8% | ?
34 | O=C(COC(=O)Cc1cccs1)Nc1ccccc1 | 0.0% | 6.0% | 1.9%
35 | C/C(=N\Nc1ccc(Cl)cc1)c1c(O)cc(C)oc1=O | -4.2% | 3.3% | -17.6%
36 | COc1ccc(S(=O)(=O)Nc2ccccc2OC)cc1NC(=O)Cc1cccs1 | -0.2% | -9.2% | ?
37 | CC1=C(C(=O)Nc2ccccc2)C(c2cccnc2)n2ncnc2N1 (configuration not stated) | -2.0% | -9.1% | -10.0%
38 | Cc1ncccc1C(=O)N1CCCC(CNC(=O)C2(c3ccc(Cl)cc3)CC2)C1 (configuration not stated) | 2.1% | -3.7% | -3.1%
39 | Cc1cccc(C)c1Nc1nnc(SCC(=O)Nc2sccc2C#N)s1 | -1.4% | ? | -13.6%
40 | COc1ccccc1NC(=O)C(=O)N(c1cccnc1)C(C(=O)NC(C)(C)C)c1ccccc1F (configuration not stated) | -0.6% | -7.0% | -3.4%
41 | N#CC(c1ccncc1)(c1ncc(C(F)(F)F)cc1Cl)N1CCOCC1 (configuration not stated) | 1.5% | -5.3% | -5.1%
42 | COC(=O)C1=NN(c2ccc(Cl)cc2)C2C(=O)N(c3ccccc3OC)C(=O)C12 (configuration not stated) | -5.6% | 0.0% | 5.1%
43 | CS(=O)(=O)c1ccc2nc(NC(=O)C3COc4ccccc4O3)sc2c1 (configuration not stated) | 0.4% | -18.1% | -6.1%
44 | COc1cccc(/C=C/C(=O)OCC(=O)c2ccc3c(c2)NC(=O)CO3)c1OC | -1.0% | -7.4% | -14.7%
45 | Cn1c(=O)c2c(ncn2C)n(C)c1=O | 0.9% | 6.0% | -30.0%

item | CCT chaperon mod | EPAC1 ag
31 | 0.0 | -2.9%
32 | -1.6 | -3.6%
33 | 1.7 | -2.0%
34 | -0.8 | 6.2%
35 | 1.5 | 2.1%
36 | -2.6 | 6.9%
37 | -0.4 | 7.4%
38 | -0.1 | 14.7%
39 | 2.0 | 12.6%
40 | -0.3 | 11.5%
41 | -0.3 | 16.7%
42 | 0.0 | -0.8%
43 | -3.2 | 2.0%
44 | -8.4 | -3.0%
45 | 0.4 | -13.6%

In the list so far, these contain an aryl thioether with sulfur outside any ring:
item | canonical_smiles | Mm-Cpn inhibitor | EPAC1 antagonist | PLK1 PBD block
12 | O=c1cc(O)nc(SCc2ccccc2Cl)[nH]1 | 2.5% | 8.2% | -5.2%
23 | CCn1c(SCC(=O)N/N=C/C=C/c2ccco2)nnc1-c1ccccc1 | -0.1% | ? | -16.5%
33 | CC(=O)OCC1=C(C(=O)O)N2C(=O)[C@@H](NC(=O)CSc3ccncc3)[C@H]2SC1 | ? | -24.8% | ?
39 | Cc1cccc(C)c1Nc1nnc(SCC(=O)Nc2sccc2C#N)s1 | -1.4% | ? | -13.6%

item | CCT chaperon mod | EPAC1 ag
12 | 2.1 | -7.2%
23 | -0.4 | -13.4%
33 | 1.7 | -2.0%
39 | 2.0 | 12.6%

Next section:
item | canonical_smiles | Mm-Cpn inhibitor | EPAC1 antagonist | PLK1 PBD block
46 | CCC(=O)N1CCC1(C)C(=O)Nc1ccc(Cl)c(Cl)c1 (configuration not stated) | . | -18.4% | -2.4%
47 | O=C(NC1CCCCCC1)C1CCN(C(=O)c2ccc(Br)cc2)CC1 | -0.2% | -14.1% | -1.4%
48 | COc1cccc2cc(C(=O)CS(=O)(=O)c3ccc(C(C)(C)C)cc3)c(=O)oc12 | -1.1% | -13.1% | 7.52µM*
49 | Cc1cc(F)ccc1NC(=O)c1ccc(NS(=O)(=O)c2cccs2)cc1 | . | -18.5% | 1.1%
50 | COc1ccccc1NC(=O)C(C)OC(=O)/C(=C/c1ccccc1)NC(C)=O (configuration not stated) | -1.2% | -6.3% | -11.3%
51 | Clc1nn2cnnc2c2ccccc12 | -1.3% | 0.7% | 1.6%
52 | CCC(=O)N1CCC1(C)C(=O)Nc1ccc(C)c(C)c1 (configuration not stated) | . | -2.4% | -0.1%
53 | COC(=O)C1=NN(c2ccc(OC)cc2)C2C(=O)N(c3ccccc3OC)C(=O)C12 (configuration not stated) | -2.8% | -9.4% | 4.2%
54 | CN1CCN(c2oc(/C=C/c3ccccc3)nc2C#N)CC1 | -4.4% | -8.4% | -3.9%
55 | COc1ccc(-c2cn[nH]c2-c2ccc(OC)cc2)cc1 | -27.3% | -5.8% | 3.7%
56 | CS(=O)(=O)c1ccc2nc(NC(=O)C3CC(=O)N(c4ccc(F)cc4)C3)sc2c1 (configuration not stated) | -1.4% | 0.5% | -12.6%
57 | O=c1c(NCCc2ccc(Cl)cc2)c(-c2ccccc2)c1=O | -0.7% | -24.7% | -19.0%
58 | Cc1ccc(C(=O)CSc2nc(O)cc(=O)[nH]2)cc1C | 1.0% | -18.6% | -0.2%
59 | COc1ccc(OC)c(NC(=O)COC(=O)Cc2ccc(-c3ccccc3)cc2)c1 | -1.1% | -24.5% | -17.0%
60 | COc1ccccc1CNC(=O)COC(=O)Cc1cccs1 | 0.5% | 0.3% | -7.6%
61 | COc1ccccc1/C=C1\C(=O)Nc2ccccc21 | 0.2% | 1.6% | 2.8%
62 | COc1ccccc1N1C(=O)C2C(C(=O)c3ccccc3)=NN(c3ccc(C)cc3)C2C1=O (configuration not stated) | 1.3% | 3.9% | ?
63 | Cn1c(-c2ccccc2)c(C#Cc2ccc(N)cc2)c2ccccc21 | -4.1% | -11.1% | -5.9%

item | CCT chaperon mod | EPAC1 ag
46 | 2.1 | 4.3%
47 | -0.4 | -4.3%
48 | 1.0 | 9.4%
49 | -1.8 | -8.8%
50 | -2.9 | 3.7%
51 | -1.5 | -9.4%
52 | 0.5 | -0.8%
53 | -3.1 | 4.2%
54 | -1.3 | 2.3%
55 | -6.4 | -5.2%
56 | -2.0 | -10.3%
57 | 0.6 | 5.5%
58 | -2.0 | -6.8%
59 | -9.7 | 17.9%
60 | -2.8 | 12.0%
61 | -0.8 | -9.7%
62 | -3.7 | 12.0%
63 | -0.1 | -16.5%
